Screening results deposited in PubChem by National Center for Advancing Translational Sciences (NCATS).
VDR inhibitor – vitamin D3 receptor (human) inhibition; AID 504847; VDR-SRC2-3 peptide fluorescence polarization, 2 h; P11473; Potency, µM, without a hit: max response, negative = inhibition, actives largely listed as inhibitors; 0.93% of 400,000 active; active means well fitted inhibition curve with a large enough effect; inconclusive means small, poorly fitted or top-dose-only effect, or another doubt; inactive means no such curve, though single readings can be large or run the other way; further: series mostly up to about 120 µM
Target sequence (P11473 whole entry, looked up): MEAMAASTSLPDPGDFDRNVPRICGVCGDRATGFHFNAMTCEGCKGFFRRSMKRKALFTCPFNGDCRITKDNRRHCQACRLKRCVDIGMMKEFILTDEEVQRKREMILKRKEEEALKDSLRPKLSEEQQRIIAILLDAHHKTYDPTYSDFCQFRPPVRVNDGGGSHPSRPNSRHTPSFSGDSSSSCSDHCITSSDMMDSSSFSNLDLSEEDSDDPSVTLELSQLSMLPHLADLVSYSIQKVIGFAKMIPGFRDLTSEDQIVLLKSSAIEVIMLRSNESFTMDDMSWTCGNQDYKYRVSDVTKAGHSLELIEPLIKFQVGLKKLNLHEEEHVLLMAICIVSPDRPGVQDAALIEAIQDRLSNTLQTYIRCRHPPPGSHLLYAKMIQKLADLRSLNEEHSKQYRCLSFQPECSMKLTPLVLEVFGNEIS
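Fluorescence polarization assay of small-molecule disruption of VDR binding to coregulator peptide SRC2-3. Compounds and controls pin-transferred, then read after 2 h incubation at ambient room temperature.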
* hit, by the source's call; ? = inconclusive; & = joins results of further samples; [ ] = another dose, or the depositor's remark. On the % scale 0 is the no-effect control and ±100 the full control effect; potency means the concentration at half of the fitted maximal effect. The list is partial; the hit share may differ from the screen's.

SMILES | VDR inhibitor
CN(C)CCCNc1ccc(-c2cc(Nc3cccc(Cl)c3)ncn2)cn1 | -12%
CN(C)CCCN(C(=O)COc1ccc(Cl)cc1)c1nc2ccc(F)cc2s1 | 5%
COc1ccc(CCNC(=O)C2CCCN2C(=O)Nc2cccc(C(C)=O)c2)cc1OC (centres undefined) | -5%
CC(=O)Nc1ccc(-c2csc(N/N=C(/C)c3ccccc3)n2)cc1 | ?
CCCCN(CC)CCNC(=O)Cn1cnc2sc(C)c(S(=O)(=O)N3CCN(c4ccccc4OC)CC3)c2c1=O | -10%
CCOC(=O)CSc1n[nH]c(NC(=O)CC)n1 | 5%
O=C(NC1CC(=O)N(c2ccc3c(c2)OCCO3)C1)N1CCC(O)CC1 (centres undefined) | -11%
O=C(NC1CC1)C1=C[C@@H](c2c[nH]c3ccccc23)C[C@@H](OCc2ccc(CO)cc2)O1 | -11%
CCCCCn1c(CN2CCN(CCO)CC2)nc2c1c(=O)n(C)c(=O)n2C | -26%
C=CCNC(=O)C(C)N1C(=O)c2ccccc2C1=O (centres undefined) | 4%
CC(=O)NCC(=O)N(C)C(C(=O)Nc1ccc(C(C)C)cc1)c1ccccc1 (centres undefined) | -15%
CCn1c(-c2nn(-c3ccccc3)ccc2=O)n[nH]c1=S | 3%
O=S(=O)(Nc1ccc(S(=O)(=O)N2CCCC2)cc1)c1ccc(F)cc1F | -5%
Cc1ccc(NC(=O)Cn2nnc(C(=O)NCc3ccco3)c2N)c(C)c1 | -12%
CNc1ncnc(Sc2nc(N)nc3nc[nH]c23)c1[N+](=O)[O-] | -5%
CCOc1cc(S(=O)(=O)NCCN2CCOCC2)c(C)cc1C | 8%
O=[N+]([O-])c1cccc(N(CC(O)CN2CCCC2)S(=O)(=O)c2ccccc2)c1 (centres undefined) | -1%
COc1cccc(N2[C@@H](CC(C)=O)c3ccccc3S2(=O)=O)c1 | -6%
COc1ccc(CNC(=O)c2cc3c(s2)CN(Cc2ccccc2)C3)cc1 | -7%
O=S(=O)(Cc1ccccc1)Oc1ccccc1 | -7%
N#C/C(=C\c1ccc[nH]1)C(=O)NC1CC1 | -8%
O=C(NCc1ccc(F)cc1)c1cnc2n(c1=O)CCS2 | -5%
O=C(NCc1ccccc1)C12CC3CC(CC(Br)(C3)C1)C2 | 5%
O=C(CCN(CCO)Cc1ccccc1)Nc1ccc(Br)cc1 | 10%
COc1ccc(C2c3[nH]c4ccccc4c3CCN2C(=O)c2cn3ccccc3n2)c(F)c1 (centres undefined) | 20%
CC(=O)C1=C(C)NC(SCC(=O)Nc2nc3ccccc3s2)=C(C#N)C1c1ccc(Cl)cc1 (centres undefined) | -7%
O=C(COC(=O)CCSc1ccc(Cl)cc1)Nc1ccc(F)cc1 | 2%
Cc1ccn2c(Nc3ccc4c(c3)OCO4)c(-c3ccco3)nc2c1 | -11%
O=C(CCCc1ccccc1)NCCS(=O)(=O)N1CCN(c2ccccc2F)CC1 | -12%
Cc1ccc(OCC(=O)NNC(=O)CCC(=O)Nc2ccc(C)cc2C)cc1 | 9%
CCCc1nnc(SCC(=O)Nc2nnc(CC)s2)n1CC1CCCO1 (centres undefined) | 1%
CCCCCC(=C/c1ccccc1)/C=N/Nc1ccc(S(=O)(=O)N2CCOCC2)cc1[N+](=O)[O-] | -5%
O=C(c1coc2ccc(O)c(CN3CCOCC3)c12)C1CC1 | -9%
CCNc1nc(NC(C)C)nc(NS(=O)(=O)c2ccc(N)cc2)n1 | 2%
CC(C)[C@H](NC(=O)NCCC1=CCCCC1)C(=O)O | 4%
Cc1cc(OCC(O)CN2CCCC2)cc(C)c1Cl (centres undefined) | -2%
N#Cc1c2c(c(=S)n(-c3ccccc3)c1N)CCCC2 | -17%
Cc1ccc(S(=O)(=O)N(CC(=O)NCCC2=CCCCC2)Cc2ccccc2F)cc1 | 0%
O=c1c(/C=N/O)c(Nc2ccccc2)nc2ccccn12 | -4%
COC(CNC(=O)c1cccnc1)OC | 1%
CNC(=O)c1cc2cc(Cl)cc(OC)c2oc1=O | 18%
CCOC(=O)Cc1csc(NC(=O)c2ccc(OC)c(OC)c2)n1 | 4%
O=C(NNC(=O)OCc1ccccc1)OCc1ccccc1 | -16%
Cc1ccc2nc(SC(C)C(=O)N3CCOCC3)[nH]c2c1 (centres undefined) | -19%
O=S(=O)(Nc1cccc(Cl)c1)c1ccc2oc(=S)[nH]c2c1 | ?
C[C@@H](C(=O)NCc1ccc(S(C)(=O)=O)cc1)[C@H]1C[C@]1(C)[C@H](NC(=O)OCc1ccccc1)c1ccccc1 | 2%
CN(C)c1ccc(N/C(N)=N/c2nc(C(F)(F)F)cc(C(F)(F)F)n2)cc1 | ?
Cc1csc(Sc2nc3c(c(=O)[nH]c(=O)n3C)n2CCCc2ccccc2)n1 | -11%
O=C1C=CC2=C3c4cc(O)c(O)cc4C[C@]3(O)COC2=C1 | 11µM*
c1nc2n(n1)C1=C(CCCC1)C1(CCCCC1)N2 | -8%
O=C(NCc1ccccc1)C(=O)NCC(c1cccs1)S(=O)(=O)c1ccccc1 (centres undefined) | 6%
O=C(c1ccc(F)cc1)N1CCN2C(=O)c3ccccc3C12c1ccccc1 (centres undefined) | 9%
O=C(CCCc1nc2ccccc2s1)NCc1ccccc1F | -6%
CCOCC(=O)Nc1ccc(S(=O)(=O)NCCc2ccccc2)cc1 | -11%
CC(=O)N1CCN(Cc2nc3ccc(Cl)cc3n2CCO)CC1 | 9%
COc1cc(OC)c2c(-c3cccc(-c4sccc4C(C)=O)c3)cc(=O)oc2c1 | -13%&-10%
NS(=O)(=O)c1ccc(CCNC(=O)c2ccc(NC3=NC4CS(=O)(=O)CC4S3)cc2)cc1 (centres undefined) | -1%
COCCCNc1ncnc2c1cnn2-c1ccc(C)cc1C | -5%
Cc1noc(C)c1CSc1nc2sc3c(c2c(=O)n1C)CCCC3 | -10%
Nn1c(SCC(=O)Nc2ccccc2)nnc1C1CCCCC1 | -7%

By substructure: those above containing bromine (2)
SMILES | VDR inhibitor
O=C(NCc1ccccc1)C12CC3CC(CC(Br)(C3)C1)C2 | 5%
O=C(CCN(CCO)Cc1ccccc1)Nc1ccc(Br)cc1 | 10%

More structures.
SMILES | VDR inhibitor
CC(=O)N1c2ccc(S(=O)(=O)N(C)C3CCCCC3)cc2CC1C (centres undefined) | -4%
COc1ccc(N2CCN(C(=O)C(=O)c3cn(CC(=O)N4CCOCC4)c4ccccc34)CC2)cc1 | -7%
O=C(Nc1ccc(Cl)c(-c2nc3ccccc3o2)c1)c1cccc2c(Cl)cccc12 | -10%
COc1cc(C)c(Br)cc1S(=O)(=O)N1CCOCC1 | -1%
CC(C)CN(C(=O)COC(=O)c1ccc(Cl)c(N)c1)c1c(N)n(Cc2ccccc2)c(=O)[nH]c1=O | -2%
Cc1nn(-c2ccccc2)c(C)c1Cc1ccc(O)cc1 | 6%
O=C(Nc1cc(=O)[nH]c2ncnn12)c1ccccc1 | 30%[activator]
Cc1ccc(C2c3c(oc4ccccc4c3=O)C(=O)N2c2nncs2)cc1 (centres undefined) | 16%
COc1ccccc1N1CCN(Cc2ccc(O)c3ncccc23)CC1 | 24%
COc1ccc(CCN(C(=O)c2cccc(F)c2)C2CC(=O)N(c3ccccc3)C2=O)cc1 (centres undefined) | -1%
COC(=O)CC1C(=O)NCCN1C(=S)NC(=O)CCc1ccccc1 (centres undefined) | 4%
COc1ccc2c(c1)cc(C(=O)N[C@@H](CCSC)C(=O)N1CCC[C@H]1C(=O)O)n2C | -16%

Shown as a hit in VDR inhibitor, of those listed so far:
SMILES | VDR inhibitor
O=C1C=CC2=C3c4cc(O)c(O)cc4C[C@]3(O)COC2=C1 | 11µM*

The list continues.
SMILES | VDR inhibitor
CCc1ccc(C2=NN(CCC(=O)NC(C)CCc3ccccc3)C(=O)CC2)cc1 (centres undefined) | -14%
O=C1Cc2ccccc2C(c2ccc(Cl)cc2Cl)N1 (centres undefined) | -7%
Cc1ccnc(NCc2cc(C)ccc2O)c1 | -12%
C=CCc1cccc2cc(C(=O)NNC(=O)CC#N)c(=O)oc12 | -6%
CCC(=O)Nc1cccc(OCc2cc(=O)n3cc(C)ccc3n2)c1 | 4%
FC(F)(F)c1cccc(NC(=S)NCCc2ccccn2)c1 | -3%
CC(=O)N[C@H](CC(C)C)C(=O)O | -9%
Cc1ccc(/C=N/NS(=O)(=O)c2ccccc2)o1 | 0%
COc1ccc(CN(Cc2ccco2)c2cnc(S(C)(=O)=O)nc2C(=O)Nc2ccc(C)c(Cl)c2)cc1 | 2%
Nc1c(S(=O)(=O)c2cccs2)c2nc3ccccc3nc2n1Cc1cccs1 | 2%
CCOC(=O)C1=C(C)NC(=O)NC1c1c(OC)ccc2ccccc12 (centres undefined) | -10%
O=C(NCC1CCCCC1)c1cccc([N+](=O)[O-])c1 | -4%
O=C(Oc1cccc2c(OC(=O)N3CCOCC3)cccc12)N1CCOCC1 | 10%
O=C(Nc1nccs1)c1cccc(NC(=O)C(F)(F)F)c1 | 9%
COc1ccc(/C=C/C(=O)OCCCN(C)C)cc1 | -8%
Cc1cccc(NC(=O)Cn2c(=O)n(CC3CCC(C(=O)NCCc4ccccc4)CC3)c(=O)c3ccccc32)c1C (centres undefined) | 0%
COc1cc2c(=O)n(Cc3ccccc3)c(=O)n(CC(=O)C(C)(C)C)c2cc1OC | -13%
CC(=O)Nc1cccc(NC(=O)c2cc(-c3cccnc3)nc3ccc(Cl)cc23)c1 | -5%
Cc1ccc(CNC(=O)c2ccc(Nc3nc4ccccc4n4nnnc34)cc2)cc1 | 10%
COc1ccc(OC)c(CNC(=O)c2ccccc2NC(=O)c2nsc3ccccc23)c1 | 16%
COc1ccc(S(=O)(=O)Nc2cc3[nH]c(=O)oc3cc2C)cc1 | 0%
COc1ccc(NC(=O)c2ccc(-c3ccccc3)cc2)cc1NS(=O)(=O)c1ccc(F)cc1 | 3%
Cn1cc(-c2nc3cnc(Oc4cccc(Cl)c4)nc3n(CCC#N)c2=O)c2ccccc21 | 2%
O=C(NC1CCS(=O)(=O)C1)c1cc(-c2ccccc2)nc2ccccc12 (centres undefined) | 4%

An excerpt of the results above:
SMILES | VDR inhibitor
O=C(Oc1cccc2c(OC(=O)N3CCOCC3)cccc12)N1CCOCC1 | 10%
O=C(Nc1nccs1)c1cccc(NC(=O)C(F)(F)F)c1 | 9%
COc1ccc(/C=C/C(=O)OCCCN(C)C)cc1 | -8%
Cc1cccc(NC(=O)Cn2c(=O)n(CC3CCC(C(=O)NCCc4ccccc4)CC3)c(=O)c3ccccc32)c1C (centres undefined) | 0%
COc1cc2c(=O)n(Cc3ccccc3)c(=O)n(CC(=O)C(C)(C)C)c2cc1OC | -13%

(cont.)
SMILES | VDR inhibitor
N#CC(c1ccccc1F)(c1ncc(C(F)(F)F)cc1Cl)N1CCOCC1 (centres undefined) | -4%
CCCn1c(=N)c(C#N)cc2c(=O)n3ccccc3nc21 | 1%
COc1cc(/C=N/NC(=S)Nc2cccnc2)cc(OC)c1OC | 0%
CN(C)CCCO[C@@H]1[C@H]2OC(C)(C)O[C@H]2O[C@@H]1[C@H](O)CO | 4%&-13%
CC(C)(C)OC(=O)N1CCC[C@H]1c1nnc(SCc2ccc(Cl)cc2)o1 | 21%
CC(SC1=NCCN1S(C)(=O)=O)c1ccccc1 (centres undefined) | 10%
Cc1ccc(N(CC(=O)N2CCCCC2)S(=O)(=O)c2ccc(C)cc2)cc1 | 15%
CO[C@]12CC(COC(=O)c3cncc(Br)c3)CN(C)[C@@H]1Cc1cn(C)c3cccc2c13 (some centres undefined) | 4%
CC(C)(C)c1ccc(OCCON2C(=O)CCC2=O)c(Cl)c1 | -4%
CCCCN(CCCC)CCNC(=O)c1cn(C)c2ccc(S(=O)(=O)N3CCOCC3)cc2c1=O | -20%
c1ccc2c(NC3=NCCCCS3)cccc2c1 | 2%
O=C(c1ccccc1)N1CCN(c2ccc([N+](=O)[O-])cc2-n2cccc2)CC1 | -9%

Next part; it opens with the 5 that closed the last part.
SMILES | VDR inhibitor
CO[C@]12CC(COC(=O)c3cncc(Br)c3)CN(C)[C@@H]1Cc1cn(C)c3cccc2c13 (some centres undefined) | 4%
CC(C)(C)c1ccc(OCCON2C(=O)CCC2=O)c(Cl)c1 | -4%
CCCCN(CCCC)CCNC(=O)c1cn(C)c2ccc(S(=O)(=O)N3CCOCC3)cc2c1=O | -20%
c1ccc2c(NC3=NCCCCS3)cccc2c1 | 2%
O=C(c1ccccc1)N1CCN(c2ccc([N+](=O)[O-])cc2-n2cccc2)CC1 | -9%
C=CCn1c(=O)c(C(=O)NCc2ccc3c(c2)OCO3)c(O)c2ccccc21 | -3%
O=C(COC(=O)C1=COCCO1)Nc1c(F)cccc1F | 9%
Cc1cccc(NC(=O)c2cc(NC(=O)CCCC(=O)O)ccc2Cl)n1 | 0%
Cc1ccc(S(=O)(=O)/N=c2\ccc(Cl)cn2C(F)F)cc1 | -23%
Cc1ccccc1NC(=O)N1CCNC(=O)C1CC(=O)Nc1cc(Cl)ccc1Cl (centres undefined) | 6%
CC1CCCN(C(=O)C2CCN(S(=O)(=O)c3cccc4nsnc34)CC2)C1 (centres undefined) | -1%
COc1ccc(NS(=O)(=O)c2cccc3ccccc23)cc1 | -3%
Cc1sc2ncnc(NCC3COc4ccccc4O3)c2c1C (centres undefined) | -14%
O=C(Nc1ccccc1Cl)c1csc(-c2cccnc2)n1 | 4%
Cc1c(S(=O)(=O)N2CCN(C(=O)c3ccco3)CC2)c(=O)n(C)c(=O)n1C | -19%
Cc1ccc2[nH]cc(CCNC(=O)c3cccs3)c2c1 | 0%
CCC(CC)C(=O)Oc1c(Sc2ccccc2[N+](=O)[O-])c(C)nn1C(C)(C)C | 9%
O=C(O)c1ccc(NS(=O)(=O)c2cccc3cccnc23)cc1 | 16%
COc1ccccc1N1CCN(C(=O)CN2C(=O)c3cccc4cccc(c34)C2=O)CC1 | -3%
COc1ccccc1NS(=O)(=O)c1ccc2nc(CCl)[nH]c2c1 | -9%
CCCn1nc(Oc2nc(SC)nc(N(C)C)n2)ccc1=O | 8%
COc1ccc(CCNC(=O)C2CCN(S(=O)(=O)N3CCCCC3)CC2)cc1OC | -1%
